From PubChem
Yeast UUG start – modulators of yeast start codon fidelity, primary screen, whole organism, S. cerevisiae, single point, plate reader; S. cerevisiae UUG-firefly luciferase reporter, luminescence/redox ratio; activity score, % at 18.7 µM; actives 0.13% (n = 350,000); AID 602363, 2012;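 active = replicate mean at a twofold rise or more, about +100% in these data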;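 note: firefly luciferase made from a UUG start codon reports start codon fidelity; reporter light over untreated wells divided by growth signal over untreated wells; some hits fall short of that in this replicate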
PABP polyA inh – PABP poly(A) RNA binding inhibitors, primary screen, biochemical, fluorescence polarization, uHTS. actives 1% (n = 290,000). Polyadenylate-binding protein 1 (Homo sapiens), P11940. inhibition, % at 35 µM. AID 2014, 2009;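 active = 50% or more with normal probe brightness, or confirmed in later tests; inconclusive = above 50% with abnormal brightness, or retests that disagree; inactive = below 50% or failed in later tests; about a fifth of its hits are not listed in these tables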;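 note: calls also rest on retests at 20 µM and on dose response follow-up; controls were probe without protein and protein plus probe with vehicle; some compounds called inactive have numbers as strong as hits; many hits fall short of the cut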
Target sequence (P11940 whole entry, looked up): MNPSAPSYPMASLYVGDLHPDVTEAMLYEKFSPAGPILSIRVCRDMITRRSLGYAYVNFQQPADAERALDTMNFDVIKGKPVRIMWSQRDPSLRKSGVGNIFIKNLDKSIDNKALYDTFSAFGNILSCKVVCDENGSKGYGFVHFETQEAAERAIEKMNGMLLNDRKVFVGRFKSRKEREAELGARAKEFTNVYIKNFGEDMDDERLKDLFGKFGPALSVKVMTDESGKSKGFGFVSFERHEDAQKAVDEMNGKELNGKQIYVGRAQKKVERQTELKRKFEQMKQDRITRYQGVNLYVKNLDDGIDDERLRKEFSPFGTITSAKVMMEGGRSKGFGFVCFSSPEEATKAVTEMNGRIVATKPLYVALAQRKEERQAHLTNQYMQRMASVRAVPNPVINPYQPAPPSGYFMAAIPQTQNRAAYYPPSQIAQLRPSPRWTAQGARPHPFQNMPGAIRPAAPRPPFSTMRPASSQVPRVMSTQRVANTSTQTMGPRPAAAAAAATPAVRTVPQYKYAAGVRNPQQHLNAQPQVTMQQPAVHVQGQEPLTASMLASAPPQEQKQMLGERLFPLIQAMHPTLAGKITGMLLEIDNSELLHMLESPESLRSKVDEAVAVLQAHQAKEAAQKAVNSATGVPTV
Rce1 inh – yeast Rce1p protease inhibitors, primary screen, biochemical, fluorescence, cell-free homogeneous. yeast membranes, quenched prenylated peptide cleavage fluorescence. AID 2563, 2010. CAAX prenyl protease 2 (Saccharomyces cerevisiae (strain ATCC 204508 / S288c)), Q03530. actives 0.27% (n = 290,000). calls only;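 active = fall in fluorescence gain of 50% or more versus controls, with final raw signal at or below 3038400; inconclusive = same 50% fall but final raw signal above 3038400; inactive = fall in fluorescence gain under 50%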;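 note: plate controls were neutral control wells for no effect and wells lacking membranes for full effect; tested at 10 µM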
Target sequence (Q03530 whole entry, looked up): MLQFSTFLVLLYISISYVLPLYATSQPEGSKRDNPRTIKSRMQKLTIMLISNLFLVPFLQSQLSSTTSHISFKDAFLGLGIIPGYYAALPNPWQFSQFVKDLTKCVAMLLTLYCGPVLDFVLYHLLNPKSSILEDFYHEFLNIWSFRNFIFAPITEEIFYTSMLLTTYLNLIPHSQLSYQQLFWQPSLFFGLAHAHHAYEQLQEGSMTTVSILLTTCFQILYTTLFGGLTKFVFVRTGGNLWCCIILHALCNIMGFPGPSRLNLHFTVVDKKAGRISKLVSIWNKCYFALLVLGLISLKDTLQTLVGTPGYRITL
CSC inhib – cancer stem cell viability inhibitors, primary screen, luminescence; actives 1.1% (n = 300,000); cancer stem cell-like cells viability; inhibition, % at 7.5 µM;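 active = mean at 75% or more and at least half the replicates too; inconclusive = mean and replicates disagree; tested in HMLE shEcad cells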;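 note: 0% = median of negative and 100% = median of positive control wells; the first replicate is given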
eIF4H FP inh – human eIF4H binding inhibitors, primary screen, translation initiation inhibitor project, biochemical, uHTS, fluorescence polarization | Eukaryotic translation initiation factor 4H (Homo sapiens), Q15056 | eIF4H fluorescence polarization binding assay | inhibition, % at 35 µM | actives 0.94% (n = 290,000);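 active = 50% or more with normal probe brightness, or confirmed in later tests; inconclusive = above 50% with abnormal brightness, or retests that disagree; inactive = below 50% or failed in later tests; about a fifth of its hits are not listed in these tables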;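 note: calls also rest on retests at 20 µM and on dose response follow-up; 0% = protein and probe with vehicle and 100% = probe without protein; strong numbers were not always called active; many hits fall short of the cut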
HIV Env fusion – inhibitors of HIV-1 Env-driven cell-cell fusion, primary screen, HeLa-JRFL effector, CEM21 target cells, luciferase | inhibition, % at 12.3 µM | actives 1.1% (n = 360,000);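 active = mean replicate inhibition score of at least 50 and every replicate individually at or above 50; inconclusive = only one of the two criteria met; inactive = mean below 50 and not all replicates reaching 50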;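 note: 0% = plate neutral controls and 100% = maraviroc near 300 nM; one replicate is shown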
MT1-MMP act inh – blockers of MT1-MMP proenzyme processing, primary screen, HT1080 RFP-PRO-GFP cells, GFP/RFP fluorescence; GFP/RFP ratio change, % at 20 µM; actives 0.061% (n = 360,000); GFP/RFP ratio fluorescence, overnight; percent of plate control window, DMSO zero;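 active = GFP/RFP ratio change of at least 30% with cell ATP level not reduced by more than half and red fluorescence within 50% of control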; note: strong numbers were not always called active
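Assay system: RFP-PRO-GFP reporter HT1080 cells; read-out basis: GFP/RFP fluorescence ratio; benchmarks: DMSO wells and RFP-L50D-GFP cells; doses: 20 µM single dose, 1% DMSO; schedule: overnight cell settling, then overnight compound exposure, 37 °C, 5% CO2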
eIF4H FP inh retest – also measured in eIF4H FP inh; calls as there; inhibition, %; compound at 20 µM; confirmation average;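 mean of two retest wells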
PABP polyA inh retest – further read-out of PABP polyA inh, marked with its call; inhibition, %; compound at 20 µM; confirmation repeats;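 mean of two retest wells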
MT1-MMP act inh RFP – also measured in MT1-MMP act inh; calls as there; RFP signal change, %; measured here: RFP expression control read;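 0 = vehicle wells; hits needed this value within 50% of zero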
An asterisk follows results filed as active; i = inactive; ? = inconclusive; / = no result given.

SMILES	Yeast UUG start	PABP polyA inh	Rce1 inh	CSC inhib	eIF4H FP inh	HIV Env fusion	MT1-MMP act inh	MT1-MMP act inh RFP	others
Cc1nc(COC(=O)c2cc(O)c3ccccc3c2O)cs1	/	8	i	/	-2	11	-4	16
CN(CC(=O)Nc1ccccc1Br)C(=O)c1ccccc1OCc1ccccc1Cl	-14	/	/	/	/	10	-8	-2
Cc1ccc(-n2nc3c(c2NC(=O)C(C)C)CS(=O)(=O)C3)c(C)c1	-23	12	i	14	-3	-20	3	3
Cc1cccc(Cc2c(C)nc3c(C(=O)N4CCN(Cc5ccc6c(c5)OCO6)CC4)cnn3c2C)c1	-2	7	i	/	-5	36	5	-6
CC1Cc2ccccc2N1C(=O)NC1CC(=O)N(c2ccc3c(c2)OCCO3)C1 (stereo not drawn)	/	-3	i	16	-8	6	2	4
CC(=O)N1CCN(S(=O)(=O)c2cccc(C(=O)Nc3ccccc3N3CCCCC3)c2)CC1	-6	/	/	/	/	10	-5	-6
CCC(C)NCCOCCOc1cc(C)c(Cl)c(C)c1 (stereo not drawn)	/	6	i	50	-5	17	-3	2
N#CC(C#N)=C(N)/C(C#N)=C/c1cc(O)c(O)c(O)c1	0	/	/	13	/	/	-18	8
O=C(O)CCCCCNC(=O)OCC1c2ccccc2-c2ccccc21	0	7	i	4	-1	4	2	2
COc1cc(/C=N\NC(=O)CC#N)ccc1OC/C=C/c1ccccc1	-13	6	i	15	6	/	-4	2
O=c1c2cnn(-c3ccccc3)c2ncn1Cc1cccnc1	-15	-7	i	-10	-4	/	3	0
CCOC(=O)c1cncc(O)c1	/	9	i	-6	1	17	0	-2
C=CCNC(=O)c1onc(CSc2ccc(Cl)cc2)c1C(=O)NCC=C	4	8	i	1	0	-1	10	-3
Cn1c(=O)c2c(ncn2CC(=O)Nc2nc(-c3ccc(F)c(F)c3)cs2)n(C)c1=O	-1	5	i	-2	-6	-3	5	-10
O=C(CSC1=NS(=O)(=O)c2cc(F)ccc2N1)NCc1ccccc1	/	/	i	-9	/	-81	6	1
Clc1ccccc1/C=N/N1CCN(Cc2ccccc2)CC1	-19	-5	i	-7	0	-12	0	1
Cc1ccc(C(=O)N/N=C\C2CC=CCC2)cc1[N+](=O)[O-] (stereo not drawn)	-10	2	i	-1	-4	-6	2	6
COCC(=O)N(CCc1ccccc1)Cc1cc2cc(C)ccc2nc1Cl	-9	-1	i	-7	-5	-7	1	4
COc1ccc(/C=C2/C(=O)ON=C2c2ccccc2)cc1OC	-28	4	i	-4	-10	3	4	24
OCCN1C2=NCCCN2c2ccccc21	-17	5	i	0	8	2	-4	-3

Overlap with the part before: 3 entries; new compounds follow.
SMILES	Yeast UUG start	PABP polyA inh	Rce1 inh	CSC inhib	eIF4H FP inh	HIV Env fusion	MT1-MMP act inh	MT1-MMP act inh RFP	others
COCC(=O)N(CCc1ccccc1)Cc1cc2cc(C)ccc2nc1Cl	-9	-1	i	-7	-5	-7	1	4
COc1ccc(/C=C2/C(=O)ON=C2c2ccccc2)cc1OC	-28	4	i	-4	-10	3	4	24
OCCN1C2=NCCCN2c2ccccc21	-17	5	i	0	8	2	-4	-3
CC1CC(C)CN(S(=O)(=O)c2cccc3cccnc23)C1 (stereo not drawn)	-12	1	i	-4	-1	3	0	-1
Cc1noc(NC(=O)c2cccc(Cl)c2Cl)c1C#N	/	-3	i	-4	-1	9	-2	2
COc1ccccc1S(=O)(=O)Cc1ccc(C(=O)N2CCOCC2)o1	-2	-1	i	-17	2	-16	-5	1
N#CC1=C(N)OC2=C(C(=O)CCC2)C1c1ccc2c(c1)OCO2 (stereo not drawn)	0	3	i	-7	-10	-4	-2	-5
CCc1nc2ccccc2c(=O)n1NC(=O)c1c(O)c2cccc3c2n(c1=O)CCC3	-13	-11	i	31	-1	/	-10	-9
C[C@H](NC(=O)c1nc[nH]c1C(=O)NCc1ccc(CNC(=O)OC(C)(C)C)cc1)C(=O)OC(C)(C)C	-9	9	?	-8	0	9	7	-9
O=C(CCc1ccccc1)NNC(=O)c1ccccc1F	/	1	i	-5	64	1	0	1	eIF4H FP inh retest=31;PABP polyA inh retest=49
Cc1cc(Br)ccc1OCCN1CC(C)OC(C)C1 (stereo not drawn)	/	6	i	28	8	8	4	1
CCOc1ccc2oc(-c3ccccc3)c(C(=O)O)c2c1	-11	2	i	-10	4	/	6	7
CCc1cccc(C)c1NC(=O)COC(=O)CNS(=O)(=O)/C=C/c1ccccc1	-5	-6	i	-16	-12	-6	4	3
O=C(NCC(=O)N(c1ccccc1F)C(C(=O)NC1CCCC1)c1cccnc1)c1ccco1 (stereo not drawn)	-10	12	i	-25	-2	-2	-3	0
COc1ccc(-c2cc(C(=O)NCCCn3ccnc3)no2)cc1OC	-16	-2	i	-24	7	-68	5	0
O=C(COc1ccc2cc(-c3ccccc3)c(=O)oc2c1)NCC1CCC(C(=O)O)CC1 (stereo not drawn)	-28	7	i	4	1	/	-1	1
COc1ccc(N2CCN(c3nc4cc(C)ccc4cc3C=O)CC2)cc1	-13	8	i	11	8	-3	0	-3
O=S(=O)(c1cc(-c2nnc(-c3ccc(Br)cc3)o2)ccc1Br)N1CCCCCC1	-21	-1	i	/	-6	/	3	2
Nc1ccc(-c2nc3cc([N+](=O)[O-])ccc3o2)cc1	-12	2	i	10	4	i	3	-5
Cn1c(=O)nc2n(Cc3ccccc3)c3ccccc3cc-2c1=O	/	12	i	-3	13	-4	-3	2
COc1ccc(C(C(=O)NC2CCCC2)N(C(=O)c2ccco2)c2cc3c(cc2C(C)=O)OCO3)cc1OC (stereo not drawn)	-11	11	i	8	-18	-22	1	4
CCN(CC)CCN1C(=O)c2cccc3cc(N)cc(c23)C1=O	6	115*	i	8	91*	-99	-37	4
NNC(=S)Nc1ccc(S(=O)(=O)N2CCOCC2)cc1	-8	4	i	7	-11	3	1	-2

5 compounds out of the list, arranged by SMILES length, low to high:
SMILES	Yeast UUG start	PABP polyA inh	Rce1 inh	CSC inhib	eIF4H FP inh	HIV Env fusion	MT1-MMP act inh	MT1-MMP act inh RFP	others
Cc1noc(NC(=O)c2cccc(Cl)c2Cl)c1C#N	/	-3	i	-4	-1	9	-2	2
CC1CC(C)CN(S(=O)(=O)c2cccc3cccnc23)C1 (stereo not drawn)	-12	1	i	-4	-1	3	0	-1
COc1ccc(N2CCN(c3nc4cc(C)ccc4cc3C=O)CC2)cc1	-13	8	i	11	8	-3	0	-3
O=C(COc1ccc2cc(-c3ccccc3)c(=O)oc2c1)NCC1CCC(C(=O)O)CC1 (stereo not drawn)	-28	7	i	4	1	/	-1	1
O=C(NCC(=O)N(c1ccccc1F)C(C(=O)NC1CCCC1)c1cccnc1)c1ccco1 (stereo not drawn)	-10	12	i	-25	-2	-2	-3	0

Next compounds:
SMILES	Yeast UUG start	PABP polyA inh	Rce1 inh	CSC inhib	eIF4H FP inh	HIV Env fusion	MT1-MMP act inh	MT1-MMP act inh RFP	others
Cc1nn(C)c(C)c1S(=O)(=O)N1CCCC(C(=O)N2CCN(c3ccccc3)CC2)C1 (stereo not drawn)	-4	7	i	-7	3	/	-1	-5
Cc1cc(C)cc(NC(=O)C(=O)NCCCN2CCCC2=O)c1	/	/	i	0	/	-16	1	3
CCOc1ccc(CNC(=O)C2CCC(=O)N2C2CCCC2)cc1OC (stereo not drawn)	-24	-2	i	10	-14	/	-3	-1
Cc1ccc(NC(=O)N(Cc2ccc3c(c2)OCO3)Cc2cc3cc4c(cc3[nH]c2=O)OCCO4)cc1	-8	-4	i	19	-4	-149	-33	-24
COc1ccc(C2NC(=S)NC3=C2CCc2ccccc23)cc1OC (stereo not drawn)	-28	-4	i	/	-6	-79	5	1
CCOC(=O)[C@@H]1[C@H]2COc3ccc(Br)cc3[C@@H]2N2C(=O)N(c3ccc(Br)cc3)C(=O)[C@]12C	-18	-13	i	10	-19	-11	-1	-3
CN(Cc1nccs1)C(=O)c1ccc2nc(Cc3ccccc3F)oc2c1	-19	1	i	-1	-2	-62	0	-1
O=C(Nc1nc(-c2ccc(-c3ccccc3)cc2)cs1)C1CCCO1 (stereo not drawn)	-4	-12	i	9	-5	/	0	-12
CCOC(=O)C1(CCOc2ccccc2)CCN(Cc2cccc(OC)c2)CC1	2	/	i	39	/	14	2	-7
CCC(C)[C@H](NC(=O)NCc1ccc(Cl)cc1)C(=O)O (stereo partly drawn)	/	10	i	5	-4	-2	4	3
O=C(CCn1nnc2ccccc21)N/N=C\Cc1ccccc1	/	9	i	-7	6	-42	0	2
Cc1nc(SCC(=O)NC2CCCCC2)[nH]c(=O)c1C	/	1	i	5	-8	3	2	3
c1cncc(CNC2CCCc3ccccc32)c1 (stereo not drawn)	-14	3	i	-13	1	-82	/	/
O=[N+]([O-])c1ccc(N2CCN(c3ccc(Cl)nn3)CC2)cc1NC1CC1	/	/	i	0	/	37	3	2
COc1cccc(CNC(=O)Cc2nc3nc(C)cc(C)n3n2)c1	/	14	i	-15	-1	9	-6	1
COc1ccc(C(=O)Nc2ccccc2C(=O)N/N=C/c2ccco2)cc1	/	2	i	21	2	-3	-1	1
C=CCn1c(-c2ccoc2C)n[nH]c1=S	-40	1	i	1	-6	-85	3	7
O=C(CSc1ccc([N+](=O)[O-])cn1)Nc1ccccc1N1CCOCC1	1	0	i	/	-5	0	-1	-1
COCCCNC(=O)COc1ccc(-c2nccc(-c3ccccn3)n2)cc1	-17	2	i	-1	5	/	-1	-4
S=C(NCCCc1ccccc1)Nc1ccccc1	-23	-5	i	3	-4	-12	2	-1
COc1ccc(CNC(C)C23CC4CC(CC(C4)C2)C3)c(OC)c1OC (stereo not drawn)	-5	1	i	4	-8	35	-1	0
NC(=O)C1CCN(C(=O)CN2C(=O)c3ccccc3S2(=O)=O)CC1	-24	0	i	-5	-5	-45	4	2
COc1cc(C2=CN(Cc3ccccc3)CCC2=O)cc(OC)c1OC	-7	/	/	/	/	-12	1	-2
CCOC(=O)C1(Cc2ccccc2Cl)CCN(Cc2csc(C(C)=O)c2)CC1	0	-19	i	18	-8	22	-2	-1

Not all compounds are listed (hit frequency here may not be typical).
